# Bioassay records deposited in PubChem by several laboratories.
# AF4-AF9 inh: inhibitors of AF4 peptide binding to AF9, primary screen, biochemical, AlphaScreen, biotin-AF4 peptide, FLAG-AF9, single point. inhibition, % at 10 µM. 0.47% of 350,000 active;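 active = every replicate reaching a set inhibition limit, whatever the replicate mean, cut at about 25% in these data; inconclusive = mean inhibition reaches that limit but some replicates miss it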;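 note: 0% = plate neutral control median and 100% = total signal loss; the record names both 10 and 1 µM as test concentration; the first replicate is given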
# Target sequence (P42568 whole entry, looked up): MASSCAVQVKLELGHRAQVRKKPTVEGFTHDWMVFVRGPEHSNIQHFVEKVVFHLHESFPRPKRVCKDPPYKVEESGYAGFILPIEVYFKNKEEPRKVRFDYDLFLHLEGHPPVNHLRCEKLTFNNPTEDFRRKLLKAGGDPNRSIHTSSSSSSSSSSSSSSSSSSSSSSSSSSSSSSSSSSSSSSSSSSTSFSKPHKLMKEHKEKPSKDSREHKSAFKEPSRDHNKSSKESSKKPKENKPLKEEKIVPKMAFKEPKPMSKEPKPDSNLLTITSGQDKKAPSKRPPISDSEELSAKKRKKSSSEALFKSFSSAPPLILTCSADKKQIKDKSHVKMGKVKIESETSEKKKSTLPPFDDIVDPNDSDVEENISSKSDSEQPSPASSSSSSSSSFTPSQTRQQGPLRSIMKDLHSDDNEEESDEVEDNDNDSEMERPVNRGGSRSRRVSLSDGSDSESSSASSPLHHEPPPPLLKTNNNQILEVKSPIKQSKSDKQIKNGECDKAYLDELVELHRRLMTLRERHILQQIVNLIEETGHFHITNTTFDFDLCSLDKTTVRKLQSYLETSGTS
# Vif A3G: inhibitors of Vif binding to APOBEC3G peptide, primary screen, biochemical, TR-FRET, GST-Vif 1-94, biotin-A3G peptide, dose response retest (AID 1117319). TR-FRET GST-Vif / biotin-A3G peptide binding; higher % means a stronger effect; test concentration not given here; strong numbers were not always called active. inhibition, %; hits with a dose series show IC50 in µM. 0.57% of 260,000 active;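 active = above the screen mean plus three standard deviations and confirmed in dose response; inconclusive = results disagree or hit not tested in dose response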;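 note: Vif residues 1-94 fused to GST binding biotinylated APOBEC3G peptide 110-148; 0% = full assay without inhibitor and 100% = GST in place of GST-Vif; retest series ran down from 100 µM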
# E coli growth: E. coli growth inhibition, primary screen, OD600 | Escherichia coli growth, 23 h; active compounds read low | OD600 absorbance (no concentration beside the values) | 0.21% of 330,000 active;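 active = OD600 absorbance below the run mean of sample wells minus 3.6 SD, in any replicate, cut at about 0.56 in these data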;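 note: stock transfer was 300 nL into about 60 µL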
# FGF22 binding: binders of human FGF22 protein, primary screen, FGF22 synaptogenesis inhibitor project, biophysical, thermal shift, single point; Fibroblast growth factor 22 (Homo sapiens), Q9HCT0; recombinant FGF22 thermal shift, SYPRO orange fluorescence; percent of sucrose octasulfate shift, DMSO zero; calls only at 9.99 µM; 1.5% of 340,000 active; AID 651658, 2012;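 active = melting point raised past a set limit in the mean and every replicate; inconclusive = no clear call; three in four hits are not shown here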
# Target sequence (Q9HCT0 whole entry, looked up): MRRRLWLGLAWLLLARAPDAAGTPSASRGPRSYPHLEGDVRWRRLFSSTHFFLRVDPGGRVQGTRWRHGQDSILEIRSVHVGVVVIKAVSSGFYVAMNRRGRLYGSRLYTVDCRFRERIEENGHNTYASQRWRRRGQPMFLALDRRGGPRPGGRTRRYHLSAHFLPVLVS
# rRNA inh HTS: reduced GFP signal of wild-type E. coli, primary screen, bacterial rRNA inhibitor project, GFP/RFP fluorescence, OD600, single point | 1.6% of 350,000 active | GFP signal change (wild-type ribosome), % (no concentration beside the values) | E. coli WT GFP vs humanized-ribosome RFP mutants, 24 h; active compounds read low; DMSO median 0, no signal -100 | AID 720706, 2013;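 active = significant combined selectivity score with lowered wild-type GFP, culture density cut under 30%, mutant RFP and density less affected; inactive = any of these conditions unmet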; note: one replicate is shown; some compounds called inactive have numbers as strong as hits
# HNF4A DNA FP: change in binding of human HNF4A to DNA, primary screen, biochemical, fluorescence polarization, FITC-DNA. Hepatocyte nuclear factor 4-alpha (Homo sapiens), P41235. 1 h. activity change, % at 10 µM. 0.3% of 360,000 active. AID 1224865, 2016; in the data active = activity change above about 30%, passing the limit was not always enough;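 note: controls were the assay level and a saturating level of protein; the project sought stronger binding though the title names inhibitors; some compounds called inactive have numbers as strong as hits; positive values seem to mean higher polarization but the record does not say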
# ALR H2O2 inh: inhibitors of human ALR sulfhydryl oxidase, primary screen, biochemical, H2O2 detection, HRP-luminol luminescence, single point | FAD-linked sulfhydryl oxidase ALR (Homo sapiens), P55789 | purified ALR, DTT oxidation | inhibition, % (no concentration beside the values) | 3.8% of 290,000 active | AID 485317, 2010;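 active = mean and each replicate at 75% or more; inconclusive = only one of the two met; inactive = neither met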;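 note: stock transfer was 7.5 nL into about 7.5 µL; 0% = neutral wells and 100% = wells with inactivated enzyme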
# Target sequence (P55789 whole entry, looked up): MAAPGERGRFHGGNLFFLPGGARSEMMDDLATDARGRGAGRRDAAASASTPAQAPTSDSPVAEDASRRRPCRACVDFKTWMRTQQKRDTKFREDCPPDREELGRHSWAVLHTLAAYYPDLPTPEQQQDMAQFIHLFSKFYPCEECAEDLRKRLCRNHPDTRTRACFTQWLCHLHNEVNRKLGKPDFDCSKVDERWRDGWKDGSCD
# rRNA inh HTS OD600: recorded beside rRNA inh HTS, whose call it bears; OD600 change, %; measured here: OD600 growth;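 optical density of the mix in the first replicate; 0 = DMSO median and -100 = no signal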
# rRNA inh HTS RFP: second read-out of rRNA inh HTS, no call of its own (marks repeat the call); RFP signal change, %; measured here: RFP humanized mutant strains;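 first replicate; 0 = DMSO median and -100 = no signal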
# Active calls of the source: *; i = inactive; u = inconclusive; x = not tested or not shown; & = joins results of further samples. Not all compounds are listed; the hit share may differ from the screen's.
SMILES,AF4-AF9 inh,Vif A3G,E coli growth,FGF22 binding,rRNA inh HTS,rRNA inh HTS OD600,rRNA inh HTS RFP,HNF4A DNA FP,ALR H2O2 inh
CCOC(=O)c1cnc(/N=C/N(C)C)s1,0.4,x,x,i,2,6,-2.7,0.2,x
COc1ccc(S(=O)(=O)Nc2ccc3c(c2)C(=O)N([C@@H](C)CO)C[C@@H](C)[C@@H](CN(C)C(=O)Nc2cccc4ccccc24)O3)cc1,0.0,x,x,i,-3,-5,0.6,x,x
Cc1ccccc1NC(=S)N=Nc1c(O)n(C)c2ccc(S(=O)(=O)N3CCOCC3)cc12,x,15%,0.72,x,x,x,x,-1.1,x
O=C(Nc1ccccc1F)N[C@@H]1CC[C@H](CCNC(=O)C2CC2)O[C@@H]1CO,-13,x,x,i,2,15,-0.8,x,x
Cc1ccc2nc(-c3ccc(N)cc3)sc2c1,-3.9,u,0.68,i,-44*,-21*,-7.0*,0.4,-99
CCC1(c2ccccc2)NC(=O)N(CC(=O)Nc2cc(Cl)ccc2N2CCOCC2)C1=O (centres undefined),-16,-2%,0.69,i,-5,-21,0.0,0.9,1
CC(=O)c1cccc(N=c2scc(-c3ccc(S(=O)(=O)N4CCOCC4)cc3)n2CCO)c1,17,x,0.7,i,-14,-3,1.7,2.1,4
CCc1cc2c(=O)c(-c3nc4ccccc4[nH]3)coc2c(CN2CCCCC2)c1O,-5.5,0%,0.69,i,-11,9,-5.2,2.8,4
O=C(O)c1cccc(-c2noc(-c3cccc(Cl)c3)n2)c1,-4.0,x,0.6,i,4,0,3.0,-1.3,33
C[C@@H](NC(=O)C[C@H]1C=C[C@@H](NC(=O)Nc2ccc3c(c2)OCO3)[C@H](CO)O1)c1ccccc1,1.9,x,x,i,2,2,-0.6,x,x
CCOC(=O)CSCC(=O)Nc1cc(C)ccc1C,3.0,-2%,0.62,i,11,-1,-3.7,1.6,98*
COc1cc(C2C3CN(C)CC=C3C(C#N)=C(N)C2(C#N)C#N)ccc1OC(C)C (centres undefined),x,2%,0.67,x,x,x,x,-34,-50
CCCc1nc(SC)[nH]c(=O)c1C,-2.8,x,0.62,i,x,x,x,-2.6,-20
CCS(=O)(=O)N1CCCC(C(=O)NCCCN2CCCC2=O)C1 (centres undefined),x,1%,0.71,x,x,x,x,1.0,-5
O=C(C[C@H]1C[C@@H]2c3cc(NC(=O)NC4CCCC4)ccc3O[C@@H]2[C@@H](CO)O1)NCc1ccncc1,-5.9,x,x,i,1,11,-2.8,x,x
Cc1ccsc1/C=N/NC(=O)Cc1ccc([N+](=O)[O-])cc1,0.2,x,x,i,3,4,-2.6,-0.1,-3
Cc1cc(=O)[nH]c(SC(C)C(=O)Nc2cccc3ccccc23)n1 (centres undefined),0.2,x,0.74,i,-19,-33,-5.4,-0.2,-12
CCOc1cccc(-n2nnnc2-c2ccc(OC)cc2)c1,x,-8%,0.73,x,x,x,x,-2.6,-1
O=C(NCCc1nc2ccccc2[nH]1)/C(=C/c1ccc2c(c1)OCO2)NC(=O)c1ccccc1Cl,x,x,0.69,x,x,x,x,1.6,-2
Cn1cccc1/C=N/NC(=O)CSc1nc2ccccc2[nH]1,8.2,-5%,x,i,-19,2,0.5,-0.2,5

# An excerpt of these results, with two lines to a compound.
# Order of values: AF4-AF9 inh	Vif A3G	E coli growth	FGF22 binding	rRNA inh HTS	rRNA inh HTS OD600	rRNA inh HTS RFP	HNF4A DNA FP	ALR H2O2 inh
COc1cc(C2C3CN(C)CC=C3C(C#N)=C(N)C2(C#N)C#N)ccc1OC(C)C (centres undefined)
    x	2%	0.67	x	x	x	x	-34	-50
Cc1ccccc1NC(=S)N=Nc1c(O)n(C)c2ccc(S(=O)(=O)N3CCOCC3)cc12
    x	15%	0.72	x	x	x	x	-1.1	x
Cc1ccc2nc(-c3ccc(N)cc3)sc2c1
    -3.9	u	0.68	i	-44*	-21*	-7.0*	0.4	-99
CCOC(=O)CSCC(=O)Nc1cc(C)ccc1C
    3.0	-2%	0.62	i	11	-1	-3.7	1.6	98*
CCc1cc2c(=O)c(-c3nc4ccccc4[nH]3)coc2c(CN2CCCCC2)c1O
    -5.5	0%	0.69	i	-11	9	-5.2	2.8	4
O=C(C[C@H]1C[C@@H]2c3cc(NC(=O)NC4CCCC4)ccc3O[C@@H]2[C@@H](CO)O1)NCc1ccncc1
    -5.9	x	x	i	1	11	-2.8	x	x

# Next part:
SMILES,AF4-AF9 inh,Vif A3G,E coli growth,FGF22 binding,rRNA inh HTS,rRNA inh HTS OD600,rRNA inh HTS RFP,HNF4A DNA FP,ALR H2O2 inh
O=C(O)c1cnn(-c2nc(-c3cccc([N+](=O)[O-])c3)cs2)c1C(F)(F)F,-18,9%,0.67,i,15,10,4.5,1.6,x
C[C@@H](NC(=O)C[C@@H]1CC[C@H]2[C@@H](COC[C@H](O)CN2C(=O)Nc2cccc(Cl)c2)O1)c1ccccc1,-1.3,x,x,i,-58,-80,-18,x,x
C[C@@H]1CCCCO[C@@H](CN(C)C(=O)CCC(F)(F)F)[C@H](C)CN([C@H](C)CO)C(=O)c2cc(NS(=O)(=O)c3ccccc3)ccc2O1,3.1,x,x,i,0,-15,3.4,x,x
Cc1ccc(CS(=O)(=O)Cc2ccc(C(=O)NCc3ccco3)o2)cc1,4.7,-2%,0.65,i,2,3,-0.1,0.4,5
COc1ccccc1NCCC#N,x,2%,0.66,x,x,x,x,4.7,-2
CO[C@H]1CN(C)C(=O)c2cc(NC(=O)Nc3c(C)noc3C)ccc2OC[C@H](C)N(CCC(F)(F)F)C[C@H]1C,3.2,x,x,i,-1,-3,-1.8,x,x
Cc1ccc(S(=O)(=O)NCCN=C(CN2CCCC2)NS(=O)(=O)c2ccc(C)cc2)cc1,x,7%,0.7,x,x,x,x,1.3,-3
C[C@@H]1CCCCO[C@H](CN(C)Cc2ccccc2)[C@@H](C)CN([C@@H](C)CO)C(=O)c2cc(NC(=O)Nc3ccc(F)cc3)ccc2O1,18,x,x,i,-11,-42,41,x,x
O=C(Cn1c(CN2CCCCC2)nc2ccccc2c1=O)NC1CCCCC1,5.3,28%,0.69,i,6,2,-6.3,3.4,x
O=C(C[C@@H]1C[C@H]2c3cc(NC(=O)C4CCOCC4)ccc3O[C@H]2[C@@H](CO)O1)NCC(F)(F)F,-6.1,x,x,i,2,2,-0.6,x,x
C[C@@H]1CN([C@H](C)CO)S(=O)(=O)c2ccc(C3=CCCC3)cc2O[C@H]1CN(C)C(=O)c1ccccc1,-1.2,x,x,i,0,-23,-2.2,x,x
Cc1cc(C(F)F)nn1CC(=O)NCc1ccccc1F,x,3%,0.66,x,x,x,x,4.1,-10
O=C(O)COc1ccccc1/C=N/NC(=O)CN1CCN(S(=O)(=O)c2ccc(Br)cc2)CC1,-1.7,x,x,i,12,10,-0.1,3.1,x
C/C=C/c1ccc2c(c1)O[C@H](CN(C)C(=O)NC1CCCCC1)[C@H](C)CN([C@@H](C)CO)S2(=O)=O,-1.4,x,x,i,-3,-12,-2.8,x,x
COc1ccc(C(=O)N(Cc2ccccc2)Cc2cc3cc4c(cc3[nH]c2=O)OCCO4)cc1,x,-16%&-12%,0.76,x,x,x,x,-0.8,-13
COc1cc(N)c(Cc2nccc3cc(OC)c(OC)cc23)cc1OC,10,-1%,0.76,i,-7,0,1.7,0.7,88*
COC(=O)C1CCN(c2cc(=O)n(C3CCCCC3)c(=O)[nH]2)CC1,x,-6%,0.68,x,x,x,x,-1.0,0
CC(C)(C)C(=O)c1c(N)[nH]c(C(=O)c2ccccc2)c1-c1ccc(Cl)cc1,2.1,x,x,i,-33,-47,-2.9,5.0,x
CC(C)NC(=O)N(C)C[C@@H]1Oc2ncc(C#Cc3ccncc3)cc2C(=O)N([C@@H](C)CO)C[C@H]1C,-4.3,x,x,i,3,6,0.2,x,x
CCOC(=O)c1c(NC(=O)CSc2nnc(-c3ccccc3C)n2C)sc(C(C)=O)c1C,x,5%&-2%,0.7,x,x,x,x,8.0,-5
O=C(CSc1nc(=O)n(CCN2CCOCC2)c2c1CCCC2)Nc1ccc([N+](=O)[O-])cc1,3.6,10%,0.67,i,9,13,-0.9,3.1,-64
C=CCC[C@H](Cc1ccc(F)cc1)C(=O)OC[C@H](C)NC(=O)[C@H](CC=C)CC(=O)NCCO,-3.1,x,x,i,-13,-18,-2.2,2.3,-10
Cc1ccc(C(=O)N2CC(=O)Nc3ccc(C)cc3C2c2ccccc2)cc1 (centres undefined),0.8,x,0.65,i,-3,-7,4.2,-1.7,x
Cc1ccc(NC(=O)c2nc(S(=O)(=O)Cc3ccccc3C)ncc2Cl)cc1C,0.3,x,x,i,-1,-3,0.5,-0.2,-2
Cn1c(=O)c2cc(S(=O)(=O)NC(Cc3ccccc3)C(=O)NCC3CCCO3)ccc2n(C)c1=O (centres undefined),-0.9,x,0.7,i,2,14,5.5,-5.1,-6
Cc1cccc[n+]1CC(=O)c1ccccc1,-3.0,7%,0.69,i,11,25,-0.8,2.4,15
O=C(COC(=O)c1ccc(Cl)nc1)Nc1c(Cl)cccc1C(F)(F)F,-0.9,2%,0.66,i,17,16,2.3,1.7,-10
O=C(CNC(=O)C12CC3CC(CC(C3)C1)C2)NC1=NCCS1,x,2%,0.7,x,x,x,x,1.6,-3
O=C(Nc1ccc2c(c1)OCO2)c1nn(-c2ccccc2)c(=O)c2ccccc12,x,2%,0.7,x,x,x,x,3.4,-2
COc1ccccc1C(=O)NC1CC2CCC(C1)N2Cc1ccccc1 (centres undefined),2.1,x,0.71,i,6,5,-1.1,-0.7,-13
Cc1ccc(C(=O)CSc2nc3ccccc3c(=O)[nH]2)cc1C,-1.9,-1%,0.69,i,16,14,2.9,-3.7,-2
COc1ccc(C)cc1N(C(=O)c1snc(C(N)=O)c1N)C(C(=O)NC1CCCCC1)c1ccc(C)o1 (centres undefined),1.2,x,0.69,i,4,-1,4.0,2.6,x
Cc1nccc2[nH]c(=O)c(C(=O)NC3CCCCC3C)cc12 (centres undefined),x,-4%,0.72,x,x,x,x,1.6,-11
Cc1nnc2n1N=C(c1ccc(F)cc1F)CS2,1.0,x,x,i,14,16,1.1,-1.2,16
C[C@H]1CN([C@@H](C)CO)C(=O)Cc2cc(NC(=O)NC3CCCCC3)ccc2O[C@H]1CN(C)C(=O)Nc1ccccc1,-3.6,x,x,i,2,7,0.2,x,x
CN(c1ccccc1N(C)S(=O)(=O)c1ccccc1)S(=O)(=O)c1ccccc1,-1.3,-2%,x,i,-16,-13,-0.4,2.2,x
C[C@H](CO)N1C[C@H](C)[C@@H](CN(C)C(=O)c2ccncc2)Oc2cc(C#CC3(O)CCCC3)ccc2S1(=O)=O,-1.5,x,x,i,-1,5,-4.0,x,x
CC(C)(C)C1=C(C#N)C(c2cccnc2)C(C#N)=C(N)O1 (centres undefined),x,4%,0.7,x,x,x,x,-3.7,11
COCCNC(=O)C(OC(=O)c1nsc(Cl)c1Cl)C(C)C (centres undefined),0.2,x,0.66,i,21,0,1.8,3.9,-22
CCc1cnc(N2[C@H](CO)[C@@H](c3ccc(C4=CCCC4)cc3)[C@@H]2C#N)s1,0.0,x,x,i,1,-4,-0.1,x,x
